Screens as filed in PubChem BioAssay.
miR-21 reporter – qHTS Assay for Modulators of miRNAs and/orActivators of miR-21. HeLa miR-21 FLuc reporter, luciferase, 48 h. Potency, µM (highest dose often 38.3 µM), for the others: at the highest dose reporter change, positive = more light. 340,000 tested, under 10 active. AID 2288, 2010; active = well fitted rising curve with a large enough effect; inconclusive = small, poorly fitted or top-dose-only effect; inactive = no such curve, though single readings can be large or run the other way;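 note: % of control where 0% means no effect; miR-21 action dims this reporter so a rising signal means less miR-21 action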
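Compounds were titrated across several concentrations (up to approximately 40 uM) and incubated 48 hours with HeLa miR-21-FLuc reporter cells (miR-21 target sequence downstream of FLuc, endogenous miR-21). Readout was firefly luciferase luminescence after lytic detection reagent.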
Starred values were filed as active, the others as inactive; ? = inconclusive. Some of the compounds tested; the hit share may differ from the screen's.

miR-21 reporter,molecule
12.2%,O=S(=O)(NCC(c1cccs1)S(=O)(=O)c1ccccc1)c1ccccc1 (stereo not drawn)
-0.3%,Cc1ccc(Cn2c(CO)cnc2SCC(=O)Nc2cccc(F)c2)cc1
1.3%,O=C(CSc1nc2ccsc2c(=O)n1-c1ccc(Br)cc1)NCc1ccccc1
2.7%,CCCCCn1c(=N)c(S(=O)(=O)c2ccc(C)cc2)cc2c(=O)n3cc(C)ccc3nc21
?,Cc1ccc(-c2c(C)n3c4c(=O)n(C)c(=O)n(C)c4nc3n2CCCO)cc1
15.3%,Cc1cccc(Cc2c(C)nc3nc(SCc4ccccc4C)nn3c2C)c1
7.6%,CC(=O)Nc1ccc(S(=O)(=O)N2CCC(c3nnnn3-c3ccccc3)CC2)cc1
-11.3%,CCOC(=O)CCn1c(=O)c2cccn2c2cccnc21
23.6%,CCc1ccc(-c2[nH]c3c(c2-c2sc(C)c(C(=O)OC)c2O)c(=O)[nH]c(=O)n3C)cc1
15.3%,Cc1cccc(N2CCN(C(=O)C3CCN(S(=O)(=O)c4ccc5c(c4)oc(=O)n5C)CC3)CC2)c1C
5.9%,COc1ccc(NC(=O)Cn2c(=O)n(CCC(=O)NCc3ccccc3OC)c(=O)c3ccccc32)cc1Cl
-0.3%,CCOC(=O)C1CCN(C(=O)CN2c3ccc(C(C)C)cc3-c3ccccc3S2(=O)=O)CC1
-0.6%,CC(C)Oc1cccc(NC(=O)C2CCN(S(=O)(=O)Cc3ccccc3)CC2)c1
-2.1%,COc1ccccc1CNC(=O)CCc1c(C)nn(-c2ccc(N3CCCC3)nn2)c1C
26.1%,CC(=O)c1cccc(Nc2nc(-c3cccc(C)c3)nc3ccccc23)c1
-0.4%,COc1cc(SC)ccc1C(=O)N1CCn2c3c(c4cc(C)ccc42)CCCC31 (stereo not drawn)
-4.4%,COc1cc(OC)cc(-c2nc(-c3ccc4c(c3)[nH]c(=O)n4C)no2)c1
?,CCOc1ccc(C(=O)c2cn(Cc3ccc(OC)cc3)c3cc(OC)c(OC)cc3c2=O)cc1
?,Clc1cccc(C2=NC(c3cccs3)=Nc3ccc(Br)cc3N2)c1
1.9%,CCC(=O)N1c2ccccc2CC1C(=O)NCCCN1CCN(c2cccc(Cl)c2)CC1 (stereo not drawn)
2.2%,CC1=C(C(=O)OCc2ccc(C)cc2)C(c2ccccc2C(F)(F)F)CC(=O)N1 (stereo not drawn)
-6.5%,CCN(CC)CCCNC(=O)c1nn(-c2ccc(OC)cc2)c(=O)c2c1c1ccccc1n2C
-1.4%,O=C(CCS(=O)(=O)c1ccccc1)N(Cc1cccnc1)c1nc2ccc(Cl)cc2s1
1.0%,Cc1ccc(CNC(=O)COCc2cc(-c3ccc4c(c3)OCO4)on2)cc1
-2.0%,Cc1cc(C)cc(OC(=O)c2cc(-c3ccc4c(c3)OCCO4)on2)c1
?,O=C(CC1N=C2c3ccccc3N=C(SCc3ccc(Cl)cc3)N2C1=O)NCCc1ccccc1 (stereo not drawn)
16.6%,CC(C)(C)OC(=O)N1CCC(c2c(C(=O)NC3CCN(Cc4ccccc4)CC3)cnn2-c2cccc(F)c2)CC1
23.6%,O=C(CCn1cnc2onc(-c3ccc(F)cc3)c2c1=O)N1CCN(c2ccc(F)cc2)CC1
?,CC(C)(C)OC(=O)N1CCC(c2c(C(=O)N3CCC(c4ccccc4)C3)cnn2-c2cccc(Cl)c2)CC1 (stereo not drawn)
-2.7%,COc1ccc(N2CCN(C(=O)c3c(C)oc4ncn(CC(C)C)c(=O)c34)CC2)cc1
3.2%,Cc1ccccc1OCC(=O)Nc1c(C)ccc2nsnc12
7.5%,Cc1cccc(NC(=O)C2CCCN(S(=O)(=O)c3cnc[nH]3)C2)c1C (stereo not drawn)
2.7%,CC1CCCN(C(=O)Cn2nnc(-c3ccc([N+](=O)[O-])cc3)n2)C1 (stereo not drawn)
-0.9%,COC(=O)c1ccc(NC(=O)c2cc(S(=O)(=O)N3CCOCC3)cn2C)cc1
19.0%,COc1ccc2c(Sc3ccc(Cl)cc3)c(C(=O)NCCCN3CCCCC3)[nH]c2c1
6.9%,CCc1ccccc1NC(=O)NC(CC)Cn1nnc2ccccc2c1=O (stereo not drawn)
12.6%,Fc1ccc(N2CCN(c3ncnc4c3nc3n4CCCC3)CC2)cc1
-1.0%,CCOc1ccc2nc(NC(=O)c3nc(SCc4ccc(C)cc4)ncc3Cl)sc2c1
0.0%,CCS(=O)(=O)N1CCc2cc(C(=O)Nc3cccc(C)c3C)ccc21
1.5%,Cc1ccc(-n2c3nc(=O)n(C)c(=O)c-3cc3ccccc32)c(C)c1
-9.3%,CC(C)CNc1nc(Oc2ccc(OCC(N)=O)nn2)nc(N2CCOCC2)n1
-35.3%,CCCCN(CC)C(=O)CCCn1c(=O)c2cccn2c2ccccc21
3.3%,O=C(Nc1ccc(Cl)cc1C(F)(F)F)c1cc(S(=O)(=O)N2CCOCC2)ccc1F
2.0%,CC1=C(C(=O)Nc2ccccc2)C(c2ccncc2)n2nc(SCc3ccccc3Cl)nc2N1 (stereo not drawn)
-8.4%,CC(=O)c1ccccc1OCC(O)Cn1c(CO)nc2ccccc21 (stereo not drawn)

A portion from further up, as a working copy:
miR-21 reporter,molecule
0.0%,CCS(=O)(=O)N1CCc2cc(C(=O)Nc3cccc(C)c3C)ccc21
1.5%,Cc1ccc(-n2c3nc(=O)n(C)c(=O)c-3cc3ccccc32)c(C)c1
-9.3%,CC(C)CNc1nc(Oc2ccc(OCC(N)=O)nn2)nc(N2CCOCC2)n1
-35.3%,CCCCN(CC)C(=O)CCCn1c(=O)c2cccn2c2ccccc21
3.3%,O=C(Nc1ccc(Cl)cc1C(F)(F)F)c1cc(S(=O)(=O)N2CCOCC2)ccc1F

New compounds follow
miR-21 reporter,molecule
-32.8%,Cc1nn2c(=O)cc(COC(=O)c3cccc(NC(=O)COc4ccccc4C)c3)nc2s1
-5.1%,COc1ccccc1CNC(=O)COCc1cc(-c2cccs2)on1
2.2%,CCCCN(C)CCNC(=O)c1ccc2c(c1)NC(=O)CN2
-3.8%,C=Cc1ccc(CSc2nc(-c3ccccc3C)nc3c2Cc2c(CO)cnc(C)c2O3)cc1
5.4%,COc1ccc(N2CCN(c3oc(/C=C/c4ccccc4OC)nc3C#N)CC2)cc1
-1.3%,Cc1ccc(C)c(N2CCN(S(=O)(=O)c3cc(Br)cc4c3N(C(=O)C3CC3)CC4)CC2)c1
-23.8%,c1csc(-c2nc3ccccn3c2Nc2ccc3c(c2)OCCO3)c1
-4.9%,COc1ccc(-c2nc3c4ccccc4n(CC(=O)Nc4ccc(C(C)C)cc4)c(=O)n3n2)cc1
4.3%,COc1ccc(NC(=O)N2CCCn3nc(C)cc32)cc1OC
-4.2%,Cc1ccc(NC(=O)CN2C(=O)C(c3ccccc3)=NC2(C)C)cc1C
-1.5%,O=C(CCS(=O)(=O)c1cc(Br)cc2c1N(C(=O)C1CC1)CC2)Nc1ccc(C(F)(F)F)cc1
-8.0%,Cc1ccc2c(CC(=O)Nc3c(C(=O)c4ccc(C)c(F)c4)oc4ccccc34)coc2c1
3.9%,Cc1ccc2c(c1)-c1c(cnn1CC(=O)N1CCN(c3ccccc3F)CC1)CO2
9.2%,Cc1cccc(N2CCN(c3ncnc4c3cnn4-c3ccc(Cl)cc3)CC2C)c1 (stereo not drawn)
?,Cc1cc(C)c(S(=O)(=O)NCC(c2ccco2)S(=O)(=O)c2ccccc2)c(C)c1 (stereo not drawn)
8.9%,Cc1cc(Cl)ccc1OCC(=O)N(Cc1ccco1)Cc1ccccc1F
16.5%,COc1cc2ncc(C(=O)c3ccc(C)cc3)c(N3CCCCC3)c2cc1OC
-3.8%,COc1ccc(-c2[nH]c3c(c2-c2c(-n4cccc4)n(C)c(=O)n(C)c2=O)c(=O)n(C)c(=O)n3C)cc1
16.3%,COc1cc(NC(=O)c2noc3c2CCc2ccccc2-3)cc(OC)c1OC
?,COc1ccc2c(c1)c(N1CCCC1=O)c(C(=O)Nc1ccc(Cl)cc1C)n2C
-2.0%,CCOc1ccc(-c2ccc(NS(=O)(=O)c3ccc(C)cc3)cc2)nn1
-10.2%,CCc1ccc(-n2nc(CO)c(C(=O)NCc3ccccc3OC)n2)cc1
13.4%,CCC(C(=O)NCCc1ccc(Cl)cc1)n1nc(C)c2c(C)n(-c3ccccc3)nc2c1=O (stereo not drawn)
25.7%,Cc1ccc(N2CC(NC(=O)/C=C\c3ccc4c(c3)OCO4)CC2=O)cc1C (stereo not drawn)
-1.7%,CCc1ccc(CSc2nc(-c3ccc(OC)cc3)nc3c2Cc2c(CO)cnc(C)c2O3)cc1
-8.5%,COc1cc(Cn2c(=O)sc3ccccc32)ccc1OCCC(C)C
-2.5%,CCCCOc1ccc(C(=O)Nc2ccc(-c3cc4ccccc4oc3=O)cc2)cc1
-1.1%,COc1cccc(N2CCN(C(=O)c3cc4c(=O)oc5ccc(C)cc5c4s3)CC2)c1
14.0%,CC(C)N(C(=O)Cn1cc(SCC(=O)Nc2ccccc2F)c2ccccc21)C(C)C
15.2%,Cc1ccc(NC(=O)C2CCC(CNS(=O)(=O)c3cccs3)CC2)cc1C (stereo not drawn)

Part of the list above in order of count of non-hydrogen atoms, descending:
miR-21 reporter,molecule
13.4%,CCC(C(=O)NCCc1ccc(Cl)cc1)n1nc(C)c2c(C)n(-c3ccccc3)nc2c1=O (stereo not drawn)
-1.1%,COc1cccc(N2CCN(C(=O)c3cc4c(=O)oc5ccc(C)cc5c4s3)CC2)c1
16.3%,COc1cc(NC(=O)c2noc3c2CCc2ccccc2-3)cc(OC)c1OC
8.9%,Cc1cc(Cl)ccc1OCC(=O)N(Cc1ccco1)Cc1ccccc1F

New compounds follow
miR-21 reporter,molecule
26.3%,CCOc1ccc2nc(N3CCCC(C(=O)NCCc4ccc(OC)cc4OC)C3)sc2c1 (stereo not drawn)
0.6%,CCOc1ccc(Nc2cc(C)c(C#N)c3nc4ccccc4n23)cc1
20.3%,COc1ccc(OC)c(NC(=O)N2CCC3(CC2)Oc2ccccc2C(=O)N3Cc2ccccc2F)c1
10.6%,COCCNC(=O)c1ccc(-c2nc(CN3CCc4ccccc43)c(C)o2)cc1
-4.9%,COc1ccc(N2CC(NC(=O)c3ccc(S(=O)(=O)N4CCCC4)cc3)CC2=O)cc1 (stereo not drawn)
-3.1%,Cc1cc(C)c(S(=O)(=O)NCC(c2ccco2)N2CCOCC2)c(C)c1 (stereo not drawn)
-2.4%,CC(C)c1nn2c(=O)cc(COC(=O)COc3ccccc3F)nc2s1
0.8%,CCc1cccc(C)c1NC(=O)c1cc(S(=O)(=O)N(Cc2ccc(C(=O)OC)cc2)Cc2ccc(OC)c(OC)c2)ccc1F
1.1%,Cc1ccc(OCC(=O)Nc2nnc(SCc3cc(=O)n4cccc(C)c4n3)s2)cc1
-8.1%,CCC1CCc2nc3sc(C(=O)Nc4ccc(F)c(Cl)c4)c(N)c3cc2C1 (stereo not drawn)
1.2%,Cc1ccc(NC(=O)Cn2c(=O)n(CC(=O)NCCc3ccccc3)c(=O)c3ccccc32)cc1
9.8%,Cc1ccc(S(=O)(=O)c2cnc(SCC(=O)Nc3cccc(Cl)c3)nc2N)cc1C
-17.8%,CC(=O)Nc1ccc(NC(=O)c2ccc3c(c2)CCN3S(=O)(=O)c2ccc(C)cc2)cc1
-4.3%,O=C(NC1(C(F)(F)F)C(=O)Nc2c1c(=O)[nH]c(=O)n2-c1ccc(Cl)cc1)c1ccccc1F (stereo not drawn)
-0.9%,Cc1cnc2c(c1SCC(=O)N(C)c1ccccc1)c(=O)n(C)c(=O)n2C
3.6%,CCOc1ccccc1NC(=O)CN1C(=O)COc2ccc(S(=O)(=O)Nc3ccccc3)cc21
-49.3%,CCOC(=O)C1(C)C=C(Nc2cccc(C(=O)O)c2)C(=O)N1c1ccccc1 (stereo not drawn)
-1.3%,CCOc1ccc(Br)cc1CNCCSc1nnnn1-c1ccccc1
4.5%,Cc1c(C(=O)NCC(c2ccc(Cl)cc2)N2CCOCC2)oc2ccccc12 (stereo not drawn)
-1.1%,O=c1[nH]c(SCc2ccc([N+](=O)[O-])cc2)nc2c1CCCC2
-1.8%,Cc1ccc(Cl)cc1N1CCN(C(=O)c2cn(CC(C)C)c(=O)c3c2c2ccccc2n3C)CC1
1.0%,COc1cccc(NC(=O)CSc2ncc3c(n2)-c2ccc(Cl)cc2N(C)S3(=O)=O)c1
-0.6%,CCOc1ccc(C(=O)NCc2nc3cccnc3n2Cc2ccc(F)cc2)cc1OCC
0.0%,CCc1ccc(-c2csc(-c3cc4cc(Br)ccc4oc3=O)n2)cc1
0.7%,CCOc1ccccc1NC(=O)CN1CCCN(Cc2cccc(Cl)c2)S1(=O)=O
-5.6%,Cc1ccc(N2CCn3c2nc2c3c(=O)n(CCCc3ccccc3)c(=O)n2C)cc1C
-3.2%,COc1cccc(-c2nnc(-c3cc4cc(Cl)ccc4oc3=O)o2)c1
5.5%,O=C(NCCSCc1ccccc1Cl)C1CCN(S(=O)(=O)Cc2ccccc2)CC1
0.6%,COc1ccc(-c2noc(-c3ccc(NC4CCCCC4)c([N+](=O)[O-])c3)n2)cc1
6.0%,COc1ccc(-c2noc(CSc3nnc(-c4ccncc4)n3-c3ccc(OC)cc3)n2)cc1
-8.8%,Cc1ccc2nc(Cl)c3cc(C(=O)N(C)C4CCCCC4)sc3c2c1
-55.8%,O=c1oc2ccccc2n1CCCOc1ccccc1Cl
-3.1%,CCSc1ncc(Cl)c(C(=O)Nc2nc3ccc(Cl)cc3s2)n1
0.3%,CCOC(=O)C1CCN(C(=O)Cn2ncc3c4ccccc4n(C)c3c2=O)CC1
